Source: PubChem BioAssay (several laboratories)
Yeast UUG start – modulators of start codon recognition fidelity in yeast; S. cerevisiae UUG-firefly luciferase reporter, luminescence/redox ratio; activity score, % at 18.7 µM; actives 0.13% (n = 350,000); AID 602363;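 active = replicate mean at a twofold rise or more, about +100% in these data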;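 also: firefly luciferase made from a UUG start codon reports start codon fidelity; reporter light over untreated wells divided by growth signal over untreated wells; some hits fall short of that in this replicate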
PABP FP inh – blocks human PABP binding to poly(A) RNA. actives 1% (n = 290,000). inhibition, % at 35 µM. AID 2014. fluorescence polarization;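 active = 50% or more with normal probe brightness, or confirmed in later tests; about a fifth of its hits are not listed in these tables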;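 also: calls also rest on retests at 20 µM and on dose response follow-up; controls were probe without protein and protein plus probe with vehicle; some compounds called inactive have numbers as strong as hits; many hits fall short of the cut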
Target sequence (P11940 whole entry, looked up): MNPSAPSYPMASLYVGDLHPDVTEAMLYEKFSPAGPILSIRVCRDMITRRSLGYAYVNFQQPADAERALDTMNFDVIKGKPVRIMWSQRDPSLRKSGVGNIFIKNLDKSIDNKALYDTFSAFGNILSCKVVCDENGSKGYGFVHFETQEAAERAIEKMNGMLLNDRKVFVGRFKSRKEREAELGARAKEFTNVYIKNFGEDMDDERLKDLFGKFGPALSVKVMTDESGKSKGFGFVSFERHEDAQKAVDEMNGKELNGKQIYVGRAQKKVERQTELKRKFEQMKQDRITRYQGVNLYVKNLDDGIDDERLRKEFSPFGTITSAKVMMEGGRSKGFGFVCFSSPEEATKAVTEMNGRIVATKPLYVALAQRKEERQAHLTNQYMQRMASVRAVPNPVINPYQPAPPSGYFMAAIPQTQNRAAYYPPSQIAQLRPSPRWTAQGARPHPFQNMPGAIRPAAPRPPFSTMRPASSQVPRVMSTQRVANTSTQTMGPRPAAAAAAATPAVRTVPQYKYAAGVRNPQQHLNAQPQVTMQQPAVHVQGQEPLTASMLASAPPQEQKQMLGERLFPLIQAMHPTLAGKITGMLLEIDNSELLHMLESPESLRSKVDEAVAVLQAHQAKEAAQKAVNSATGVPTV
Rce1 inh – inhibitors of yeast Ras-converting enzyme; yeast membranes, quenched prenylated peptide cleavage fluorescence; AID 2563; Q03530; calls only; actives 0.27% (n = 290,000);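 active = fall in fluorescence gain of 50% or more versus controls, with final raw signal at or below 3038400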;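 also: plate controls were neutral control wells for no effect and wells lacking membranes for full effect; tested at 10 µM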
Target sequence (Q03530 whole entry, looked up): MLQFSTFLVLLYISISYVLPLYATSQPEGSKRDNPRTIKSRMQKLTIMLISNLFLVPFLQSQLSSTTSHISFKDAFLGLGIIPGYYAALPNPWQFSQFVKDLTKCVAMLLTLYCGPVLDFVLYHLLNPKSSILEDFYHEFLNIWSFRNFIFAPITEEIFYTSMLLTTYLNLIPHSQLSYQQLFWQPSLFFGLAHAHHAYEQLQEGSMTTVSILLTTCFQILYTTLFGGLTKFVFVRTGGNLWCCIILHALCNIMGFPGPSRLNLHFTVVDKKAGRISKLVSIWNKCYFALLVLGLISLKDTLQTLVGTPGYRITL
HIV Env fusion – inhibitors of HIV Env-mediated cell fusion; HeLa-JRFL Env/CEM21 cell fusion, luciferase; AID 651610; actives 1.1% (n = 360,000); inhibition, % at 12.3 µM;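 active = mean replicate inhibition score of at least 50 and every replicate individually at or above 50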;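 also: 0% = plate neutral controls and 100% = maraviroc near 300 nM; one replicate is shown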
eIF4H FP inh – inhibitors of RNA binding by human eIF4H; Q15056; eIF4H fluorescence polarization binding assay; inhibition, % at 35 µM; actives 0.94% (n = 290,000); AID 2012;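 active = 50% or more with normal probe brightness, or confirmed in later tests; about a fifth of its hits are not listed in these tables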;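 also: calls also rest on retests at 20 µM and on dose response follow-up; 0% = protein and probe with vehicle and 100% = probe without protein; strong numbers were not always called active; many hits fall short of the cut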
MT1-MMP act inh – blocks activation of human MT1-MMP | HT1080 RFP-PRO-GFP cells, GFP/RFP ratio fluorescence, overnight; percent of plate control window, DMSO zero | actives 0.061% (n = 360,000) | P50281 | GFP/RFP ratio change, % at 20 µM | AID 651647;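 active = GFP/RFP ratio change of at least 30% with cell ATP level not reduced by more than half and red fluorescence within 50% of control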; also: strong numbers were not always called active
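Assay system: HT1080 cells carrying an RFP-PRO-GFP reporter | Dosing: Single dose of 20 µM compound, 1% DMSO final | Incubation: Cells overnight before dosing, compound overnight, 37 °C, 5% CO2 | Evaluation: GFP/RFP fluorescence ratio | Control set: DMSO and RFP-L50D-GFP cell wells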
CSC inhib – blocks cancer stem cells; cancer stem cell-like cells viability, luminescence; inhibition, % at 7.5 µM; actives 1.1% (n = 300,000);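 active = mean at 75% or more and at least half the replicates too; tested in HMLE shEcad cells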;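 also: 0% = median of negative and 100% = median of positive control wells; the first replicate is given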
eIF4H FP inh retest – further read-out of eIF4H FP inh, marked with its call; inhibition, %; compound at 20 µM; confirmation average;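 mean of two retest wells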
PABP FP inh retest – further read-out of PABP FP inh, marked with its call; inhibition, %; compound at 20 µM; confirmation repeats;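 mean of two retest wells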
MT1-MMP act inh RFP – second read-out of MT1-MMP act inh, no call of its own (marks repeat the call); RFP signal change, %; measured here: RFP expression control read;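 0 = vehicle wells; hits needed this value within 50% of zero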
* marks the source's active call; other numbers are inactive results; i = inactive; · = no result given; + = active, no number. An unsorted share of the library; about 2.9% have a hit in one of these screens.

SMILES	Yeast UUG start	PABP FP inh	Rce1 inh	HIV Env fusion	eIF4H FP inh	MT1-MMP act inh	MT1-MMP act inh RFP	CSC inhib	others
CC(c1ccccc1)N1C(=O)c2ccc(C(=O)Nc3ccc(Br)cc3C(=O)O)cc2C1=O (stereo unspecified)	-20	42	i	-7	23	-2	2	-2
O=C(NNS(=O)(=O)c1ccc([N+](=O)[O-])cc1)C1CCCCC1	-16	0	i	4	-3	2	1	-4
COc1ccc(C2=NN(C(=O)c3ccccc3C(=O)O)C(c3ccccc3O)C2)cc1 (stereo unspecified)	-3	-8	i	-115	0	2	5	15
O=C1Cc2ccccc2C(=O)N1c1ccccc1	-21	2	i	5	-2	-7	1	0
Cc1ccc2[nH]c(=O)c(CN(CC3CCCO3)C(=O)c3cccs3)cc2c1 (stereo unspecified)	-12	-8	i	-4	1	0	-2	·
Nn1cnnc1N/N=C/c1cc(Br)cc(Br)c1O	·	10	i	·	12	-10	-1	·
C=CCSc1nc2nc(C)cc(C)n2n1	-4	-5	i	-38	1	-9	-3	-14
C/C(=N/NC(=O)c1ccc(Br)s1)c1ccncc1	-18	-4	i	-12	-4	-10	-1	·
COc1ccc(O)c(C=NCC(C)N=Cc2cc(OC)ccc2O)c1 (stereo unspecified)	-22	0	i	-18	4	4	6	-2
CCOC(=O)c1cnc(Nc2ccc(OCC)cc2)nc1C	·	4	·	-49	-3	1	3	-6
CC1(C)CC(=O)C2=C(C1)NC(Nc1nc3ccccc3o1)=NC21CCCC1	·	0	i	-6	2	-1	2	-10
Cc1nn(Cc2noc(C(=O)NC3CCC(C)CC3)n2)c(C)c1Br (stereo unspecified)	-20	-1	i	11	-10	-1	-7	15
Cc1ccc(S(=O)(=O)N[C@H](C(=O)N2CCC(C(=O)N[C@@H](CC(=O)O)C(=O)O)CC2)C(C)C)cc1	-9	3	i	·	-7	3	2	-6
CCCCCNCc1ccc(OCc2ccc(Cl)nc2)c(OC)c1	·	87	i	7	-5	1	-2	-12	eIF4H FP inh retest=-2;PABP FP inh retest=7
COc1ccc(NC(=O)CSc2nnc(Cn3nnc4ccccc43)n2C)cc1	-4	-6	·	·	-9	4	5	13
CCOc1ccc(CCNC(=O)COC(=O)c2oc3ccccc3c2COC)cc1OCC	-12	·	·	·	·	1	3	-5
COc1ccc(/C=N/NC(=O)c2ccc(N3CCCC3=O)cc2)cc1	-16	5	i	3	-14	8	2	-5
O=C(CSc1nnc(NC(=O)c2cccc(F)c2)s1)NCc1ccco1	-14	11	i	-16	-2	1	1	-9
COc1ccc(S(=O)(=O)N2CCC(C(=O)NC3CCCC3)CC2)cc1C	-28	-9	i	2	-2	1	2	3
CC(=O)C1=C(O)C(=O)N(Cc2ccccc2)C1c1ccco1 (stereo unspecified)	-17	44	i	16	1	-5	2	2
O=C(Nc1cccc(-c2cn3c(n2)SCC3)c1)c1ccc2c(c1)OCO2	-13	-11	i	-2	-2	0	3	0
CCC1(c2ccccc2)NC(=O)N(CC(=O)N2CC(=O)Nc3ccccc32)C1=O (stereo unspecified)	-4	·	·	·	·	5	-1	-6
CCn1c(SCC(=O)Nc2ccccc2OC)nnc1-c1cnccn1	-15	-2	i	-23	-5	1	4	1
Clc1cc2c(cc1/C=N/Nc1nc(N3CCOCC3)nc(N3CCOCC3)n1)OCO2	·	-12	i	-10	8	5	2	-7
c1ccc(N2CCOCC2)c(Nc2nc3ccccc3n3cnnc23)c1	-24	6	i	24	-8	2	-1	13
O=S(=O)(c1ccccc1)c1nc(-c2ccco2)oc1N1CCCCC1	-10	-8	+	3	-4	1	1	·
Nc1ccc2c(O)cc(S(=O)(=O)O)cc2c1	1	·	·	6	·	-6	3	·
Cc1c(Cc2ccccc2)c(=O)oc2cc(OCC(=O)NCC3CCC(C(=O)O)CC3)ccc12 (stereo unspecified)	0	9	i	·	-2	-3	-1	-7
Cc1cccc(OCC(=O)NC(=S)N2CCCc3ccccc32)c1	·	13	i	·	-1	1	-1	-3
COc1ccc(NS(=O)(=O)c2cc(NC(=O)c3ccc(C)o3)ccc2N2CCCCC2)cc1	·	-15	i	47	-2	0	-6	11
CCN(CC)CCC(=O)NN	·	-3	i	-9	6	0	-2	-12
CC12CCC(=O)N1c1c(sc3nc(N4CCOCC4)c4c(c13)CCCC4)C(=O)N2 (stereo unspecified)	18	0	i	-39	-5	11	12	-6
O=C(Nc1nc2c(s1)CCCC2)c1cc(-c2ccc3c(c2)OCO3)nc2ccccc12	·	-6	i	·	-11	·	·	19
CCOC(=O)C1=C(C)NC(=O)NC1C (stereo unspecified)	-1	11	i	·	5	-5	-1	-9
O=C(Nc1cccc(-c2nc3ccccc3[nH]2)c1)c1cccc(NC(=O)c2ccco2)c1	-12	-50	i	-29	-50	-1	-8	99*
Cc1ccc(Oc2nc3c(C)cccn3c(=O)c2/C=C(\C#N)C(N)=O)cc1	-1	34	i	17	78	-4	-4	5	eIF4H FP inh retest=-3;PABP FP inh retest=31
Cc1cccc(OCC(=O)N2CCC(N3CCOCC3)CC2)c1	21	8	i	·	7	1	4	-3
Cc1ccc2c(c1)S/C(=C/c1ccc[n+](C)c1)N2CCO	·	-5	i	8	2	-33	-16	1
CSc1nc(N)c2c3c(sc2n1)CN(C)CC3	-4	0	i	-4	14	-3	3	-1
O=C(NCc1cccnc1)NC1(C(F)(F)F)Oc2ccccc2O1	2	0	i	-10	-6	1	-13	-5
CN(CCC1CCOCC1)C(=O)CC1C(=O)NCCN1C/C=C/c1ccccc1 (stereo unspecified)	·	3	i	12	-4	1	4	-6
Cc1cc(N2C(=O)Cc3ccccc3C2=O)ccc1C(C)C	-57	3	i	-5	2	-1	3	2
O=C(O)c1cccc2c(/C=N/Nc3ccccn3)c[nH]c12	·	1	·	·	0	-5	-1	-6
CCCc1cc(C(=O)NNC(=S)NC(C)c2ccccc2)cs1 (stereo unspecified)	-36	-4	i	-32	18	7	-8	·
CC(=O)OC1CC(C)N(C(=O)c2ccccc2)c2ccc(C)cc21 (stereo unspecified)	-2	-5	i	3	-1	6	-5	-4
CCOc1cccc(CN2CCCC(CCC(=O)NCc3ccccc3F)C2)c1O (stereo unspecified)	-3	-1	i	7	2	1	1	13
CCNC(=O)COC(=O)c1ccc(NS(=O)(=O)c2ccc3c(c2)OCCO3)cc1	·	-13	i	-11	0	-1	3	·
COc1ccc(NC(=O)COC(=O)CNC(=O)c2cccs2)cc1Cl	-10	·	·	·	·	0	1	-6
O=C(N/N=C1/CCS(=O)(=O)c2ccc(F)cc21)c1ccccn1	·	-1	i	-3	0	-2	1	·
CN1C(C(=O)NCc2ccco2)=CC(c2ccc(F)cc2)=NS1(=O)=O	-19	3	i	-7	1	1	1	-20

Next section.
SMILES	Yeast UUG start	PABP FP inh	Rce1 inh	HIV Env fusion	eIF4H FP inh	MT1-MMP act inh	MT1-MMP act inh RFP	CSC inhib	others
Cc1noc(C)c1S(=O)(=O)Nc1c(C)n(C)n(-c2ccccc2)c1=O	-14	-4	i	7	-3	5	0	-11
C=CCn1c(=O)c2ccccc2n2c(SCc3cc(=O)n4ccsc4n3)nnc12	-5	2	·	·	1	-3	4	-7
CC(c1ccccc1)N1CNc2c(c(=O)n(C)c(=O)n2C)C1 (stereo unspecified)	-5	8	i	·	2	0	0	·
CN1C(=O)c2ccc(NC(=O)C3CC3)cc2C1=O	-10	-2	i	2	-15	-1	2	0
COc1ccc(-c2noc(-c3ccc(Br)o3)n2)cc1OC	-9	-6	i	-109	-3	9	5	-5
COc1ccc(Cl)cc1NC(=O)NC(C)C	·	4	i	7	-2	0	4	-16
OC(COc1cccc2ccccc12)CN1CCN(c2ccccn2)CC1 (stereo unspecified)	5	-2	i	-18	-2	2	0	-6
COc1ccc(C(=O)N(CN2CCCC2=O)c2nccs2)cc1OC	-9	2	i	20	5	6	3	-1
COc1cccc(Nc2nc(C(N)Cc3ccccc3)cs2)n1 (stereo unspecified)	-24	·	·	-51	·	-2	0	·
CC(C)C(OC(=O)c1oc2ccccc2c1CSC1CCCCC1)C(=O)NC(N)=O (stereo unspecified)	·	-3	i	·	-4	·	·	-21

A stretch of the results above, for reference:
SMILES	Yeast UUG start	PABP FP inh	Rce1 inh	HIV Env fusion	eIF4H FP inh	MT1-MMP act inh	MT1-MMP act inh RFP	CSC inhib	others
COc1ccc(Cl)cc1NC(=O)NC(C)C	·	4	i	7	-2	0	4	-16
OC(COc1cccc2ccccc12)CN1CCN(c2ccccn2)CC1 (stereo unspecified)	5	-2	i	-18	-2	2	0	-6
COc1ccc(C(=O)N(CN2CCCC2=O)c2nccs2)cc1OC	-9	2	i	20	5	6	3	-1
COc1cccc(Nc2nc(C(N)Cc3ccccc3)cs2)n1 (stereo unspecified)	-24	·	·	-51	·	-2	0	·
CC(C)C(OC(=O)c1oc2ccccc2c1CSC1CCCCC1)C(=O)NC(N)=O (stereo unspecified)	·	-3	i	·	-4	·	·	-21

(cont.)
SMILES	Yeast UUG start	PABP FP inh	Rce1 inh	HIV Env fusion	eIF4H FP inh	MT1-MMP act inh	MT1-MMP act inh RFP	CSC inhib	others
Cc1ccc(NC(=O)COC(=O)c2ccc3c(c2)OCO3)cc1S(=O)(=O)N1CCCCC1	·	7	i	10	4	5	6	2
O=C(O)Cc1ccc(NC(=O)C(c2ccccc2)c2ccccc2)cc1	·	3	i	-2	-8	-2	3	1
CCc1nc2c(OCCOc3ccc(F)cc3)cccn2c1N(C)C(=O)c1ccc(C)cc1	-17	·	·	-3	·	-3	-7	·
O=C(NC1(C(F)(F)F)NC(=O)N(c2ccccc2F)C1=O)c1ccncc1 (stereo unspecified)	-15	2	i	-10	-6	-4	0	-27
Cc1c(CN(C)Cc2cn(C)nc2-c2ccccc2F)[nH]c2ccccc12	7	-2	i	30	-10	-4	4	11
COc1ccc(-c2n[nH]c(C)c2-c2cc(OC)ccc2O)cc1	-21	-8	i	-22	-4	7	-3	-6
O=C1c2ccccc2C(=O)N1CCc1nn[nH]n1	-17	6	i	·	4	-1	-1	7
CCCn1c(N)c(N2CCCCC2)c(=O)n(CC(=O)Nc2ccccc2C(F)(F)F)c1=O	20	·	·	-18	·	13	-2	-18
COc1ccc(NCC(=O)n2c(C)c(C)c3ccccc32)cc1	-13	-9	i	-146	-3	-8	-8	52
CCN(CC)S(=O)(=O)c1ccc(-c2nnc(SCC(C)=O)o2)cc1	-22	1	i	-22	-2	-4	2	-4
CNC(=S)N1N=C(c2ccc(Br)cc2)CC1c1ccc(Br)cc1 (stereo unspecified)	-15	5	i	-54	0	-12	-11	2
CCN(CC)C(=S)SC1CCCCN(C(=O)c2ccccc2)C1=O (stereo unspecified)	·	2	i	9	1	-1	7	-13
Cc1ccc(NS(=O)(=O)c2cc(C(=O)NCCCN(C)C)ccc2Cl)cc1Cl	-10	·	·	-6	·	-2	-3	·
Cc1nc(C(F)(F)F)ccc1C(=O)NN1CCOCC1	-3	17	i	·	15	1	7	14
CCC(C)NC(=O)COC(=O)c1ccccc1OCC(=O)Nc1ccc(Br)cc1 (stereo unspecified)	·	6	i	1	-9	5	1	-6
COc1cc(/C=C(/C#N)C(=O)NC(C)c2ccccc2)cc(OC)c1O (stereo unspecified)	-2	-13	i	-21	-22	-66	1	4
COCOCCn1cc(CN2CCS(=O)(=O)N(Cc3ccc(-c4cccc(CO)c4)cc3)C(CC(C)C)C2=O)nn1 (stereo unspecified)	12	·	·	-8	·	-1	1	·
Cc1c(CCC(=O)N2CCC[C@H]2C(=O)O)c(=O)oc2c(C)c3oc4c(c3cc12)CCCC4	9	27	i	·	2	1	-14	-11
CCOc1ccc(C(=O)CSc2nnc3ccccn23)cc1	·	0	i	·	-10	-1	3	-7
O=[N+]([O-])c1ccccc1CN1CCN(S(=O)(=O)c2ccccc2)CC1	·	·	i	-56	·	2	1	-12
